# Assay outcomes: PubChem, National Center for Advancing Translational Sciences (NCATS)
# Menin MLL FP FL – menin-MLL binding inhibition, fluorescein peptide. Fluorescence polarization, fluorescein-MLL peptide displacement from menin. FP activity change, % at 61.4 µM. 290,000 tested, under 10 active. AID 1766; inconclusive = falling polarisation curve, or a change in total fluorescence; inactive = total fluorescence flat and polarisation flat or rising; no compound was filed as active; the % refers to the polarisation; negative = inhibition;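 note: % of control where 0% means no effect; inhibitors lower the polarisation; unlabelled MLL peptide was the positive control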
# gsp antagonist – antagonists of gsp mutant (McCune-Albright syndrome). gsp-mutant cells, cAMP HTRF, 30 min; control for the full effect not named in the record. Potency, µM (doses to about 76.9 µM), for inactives: at the top dose activity change, negative = inhibition, actives largely listed as inhibitors. hit rate 0.4% among 340,000; active = falling curve of any shape with a large fitted effect; inconclusive = falling curve, mostly with a smaller effect; inactive = flat or rising curve; cell line not stated here;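 note: intracellular cAMP measured with PDE inhibitor Ro 20-1724 present during compound exposure; potency is the fitted concentration of half-maximal effect; % is set by controls: 0 for no effect and ±100 for the full control effect; nearly all actives have a fitted effect of over 65% in size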
#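 Cells, 2000/well, grown 16–24 h in DMEM 10% FBS with 0.5 mg/ml G418, then compounds plus […] (300 uM addition stock), 30 min at 37C. cAMP read by HTRF (cAMP-d2 and anti-cAMP antibody-K in lysis buffer) after 30 min RT.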
# ClpP mod – qHTS Assay for Activators of ClpP | ATP-dependent Clp protease proteolytic subunit (Bacillus subtilis (strain 168)), P80244 | purified B. subtilis ClpP, FRET peptide cleavage, 20 min | Potency, µM (top dose mostly 57.5 µM), inactives show at the highest dose activity change, negative = active | hit rate 1.9% among 340,000 | AID 651965, 2013; active = well fitted falling curve with a large enough effect; inconclusive = small, poorly fitted or top-dose-only effect; inactive = no such curve, though single readings can be large or run the other way; note: potency is the fitted concentration of half-maximal effect; the source files actives as falling curves though it sought activators and does not explain the sign; nearly all actives have a fitted effect of over 65% in size; many hits overshoot -100%
# Target sequence (P80244 whole entry, looked up): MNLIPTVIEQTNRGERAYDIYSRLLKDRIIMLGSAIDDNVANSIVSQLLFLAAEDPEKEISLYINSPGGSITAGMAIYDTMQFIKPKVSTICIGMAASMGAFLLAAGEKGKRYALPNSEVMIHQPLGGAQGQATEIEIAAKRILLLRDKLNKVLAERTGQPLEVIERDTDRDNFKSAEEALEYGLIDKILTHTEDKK
#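 ClpP 10 microg/mL final, pH 8 Tris/KCl buffer with BSA, glycerol, Tween-20; compound pinned in; FRET-FV substrate; RT 20 min; Ex320/Em430; ΔFRET vs ADEP 5.8 microM, DMSO, no enzyme.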
# Sfp inh – inhibitors of Bacillus subtilis Sfp phosphopantetheinyl transferase; Potency, µM, for the others: max response, negative = inhibition, usual class: inhibitors; AID 1490; Biochemical Sfp PPTase activity, qHTS; hit rate 3.5% among 310,000; active = well fitted inhibition curve with a large enough effect; inconclusive = small, poorly fitted or top-dose-only effect, or another doubt; inactive = no such curve, though single readings can be large or run the other way;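 note: the enzyme is Sfp with the accession as filed and its product quenches rhodamine fluorescence; potency is the fitted concentration of half-maximal effect; 0% = enzyme reaction without inhibitor and -100% = no enzyme wells; top concentration of the series not given in the record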
#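 Compounds were incubated with enzyme (final 15 nM) for 15 min at room temperature before substrate addition started the reaction. Fluorescence at 525 nm excitation, 598 nm emission was recorded immediately and after 30 minutes.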
# TRPV1 PAM – human TRPV1 potentiation | potentiation, % at 8.33 µM | TRPV1-expressing cells, Fluo-8 calcium influx, capsaicin EC20 potentiation; host cell line not named in the record; control for the full effect not named in the record | hit rate 0.02% among 320,000 | AID 540277; active means potentiation above 80%; inconclusive means 30% to 80%; inactive means below 30%; note: 0% is about no effect
# Target sequence (Q8NER1 whole entry, looked up): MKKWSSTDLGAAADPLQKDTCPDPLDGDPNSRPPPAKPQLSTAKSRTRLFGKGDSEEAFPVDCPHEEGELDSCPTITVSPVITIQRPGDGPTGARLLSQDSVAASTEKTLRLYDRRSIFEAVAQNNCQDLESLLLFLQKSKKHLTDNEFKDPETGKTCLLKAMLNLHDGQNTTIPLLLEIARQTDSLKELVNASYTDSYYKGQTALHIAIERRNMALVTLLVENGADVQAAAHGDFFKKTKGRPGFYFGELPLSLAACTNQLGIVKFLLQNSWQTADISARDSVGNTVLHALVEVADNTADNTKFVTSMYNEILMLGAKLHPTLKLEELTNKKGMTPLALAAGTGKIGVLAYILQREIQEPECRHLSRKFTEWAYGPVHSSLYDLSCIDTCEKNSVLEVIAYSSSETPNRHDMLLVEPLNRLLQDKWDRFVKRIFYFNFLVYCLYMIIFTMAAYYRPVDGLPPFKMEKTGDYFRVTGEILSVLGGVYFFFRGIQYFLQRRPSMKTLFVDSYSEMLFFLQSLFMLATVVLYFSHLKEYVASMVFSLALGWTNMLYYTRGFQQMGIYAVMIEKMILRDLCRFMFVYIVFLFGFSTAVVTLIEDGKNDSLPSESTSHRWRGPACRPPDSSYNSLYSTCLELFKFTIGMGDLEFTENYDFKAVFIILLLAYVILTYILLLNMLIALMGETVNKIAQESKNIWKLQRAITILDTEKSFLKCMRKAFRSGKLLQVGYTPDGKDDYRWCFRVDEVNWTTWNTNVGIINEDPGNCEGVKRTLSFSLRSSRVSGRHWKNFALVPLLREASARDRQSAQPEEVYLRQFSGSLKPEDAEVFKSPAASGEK
#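 Cells expressing TRPV1 were dye-loaded with Fluo-8 and read kinetically: 10 s baseline, 3 min after compound (agonist portion), then 2 min after EC20 capsaicin (allosteric enhancer portion). Calcium-bound dye fluorescence at 480/520 nm.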
# gsp ag – activates gsp, the McCune-Albright syndrome mutation; hit rate 0.13% among 340,000; Potency, µM (series often up to 76.9 µM), for the others: top-dose activation (cAMP increase), most hits filed as activators; gsp mutant cells, cAMP HTRF, 30 min; control for the full effect not named in the record; active = well fitted activation curve with a large enough effect; inconclusive = small, poorly fitted or top-dose-only effect, or another doubt; inactive = no such curve, though single readings can be large or run the other way; cell line not stated here;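 note: phosphodiesterase inhibitor Ro 20-1724 added with compounds to block cAMP breakdown; potency is the fitted concentration of half-maximal effect; nearly all actives have a fitted effect of over 60% in size; about a fifth of the inactives were tested at one dose only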
#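 Cells in DMEM/10% FBS with G418 were pretreated with compounds in DMSO plus […] (300 uM stock) for 30 min at 37C. cAMP was measured by HTRF (cAMP-d2 plus anti-cAMP antibody-K) after 30 min at room temperature.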
# D2 potentiator – potentiates the human D2 dopamine receptor allosterically. P14416. DiscoveRx D2 beta-arrestin cells, luminescence, 90 min; 100% = 57 uM dopamine signal. potentiation, % (no concentration beside the values). AID 624464. hit rate 0.23% among 360,000; active = potentiation of 50% or more; inconclusive = 30% to 50%; inactive = 30% or less;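 note: compound concentration not given in the record; tested on top of an EC20 dose of dopamine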
#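 D2 cells co-treated with compound plus 50 nM dopamine (EC20) for 90 min at 37 deg C to detect potentiation. Beta-arrestin recruitment was read as enzyme-fragment luminescence after 1 h at ambient temperature. Full response was set by 57 uM dopamine.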
# The depositor's hits bear a star; ? = inconclusive; / = no result given; [ ] = another dose, or the depositor's remark.
SMILES	gsp antagonist	Sfp inh	Menin MLL FP FL	gsp ag	ClpP mod	TRPV1 PAM	D2 potentiator
CN(C)CCCNC(=O)c1cc(C(=O)c2c(Cl)cccc2Cl)c[nH]1	8%	6%	0.3	?	/	8	-17
CCn1nc(C)cc1C(=O)Sc1cccc(Br)c1	4%	5%	6.4	5%[15.4 µM]	/	/	-14
NS(=O)(=O)c1ccc(CCNC(=O)C2(S(=O)(=O)c3ccc(Cl)cc3)CC2)cc1	-2%	25%	3.7	-1%	/	3	3
Cc1nnc(SCCN2C(=O)c3ccccc3C2=O)[nH]c1=O	-2%	10%	0.4	-14%	-5.7%	-10	-3
Cc1ccc2cc(CN(Cc3ccco3)C(=O)NCc3ccccc3)c(=O)[nH]c2c1C	-14%	-10%	1.1	-1%	-29%	10	1
COc1ccccc1C(=O)Nc1ccc2c(c1)CCCN2C(=O)c1ccccc1	?	2%	-1.5	37%	0.0%	-4	-1
COc1ccc(S(=O)(=O)N2CCC(C(=O)NC(c3nc4ccccc4[nH]3)C(C)C)CC2)cc1 (stereo unspecified)	-11%	/	/	2%	-0.6%	0	-13
CN(C)CCOCCOc1ccc(Cl)cc1C(C)(C)C	0%	-25%	-5.3	-35%[15.4 µM]	/	5	-10
Cc1cc(C(F)F)n2nc(C(=O)O)nc2n1	9%	12%	3.8	2%	-5.9%	2	-16
Cn1ccnc1SCC(=O)c1ccc([N+](=O)[O-])cc1	-16%	-3%	-1.5	4%[15.4 µM]	/	7	0
CC(C)c1ccc(-c2csc3nc[nH]c(=O)c23)cc1	-21%	13%	7.1	-6%	-1.9%	6	-1
COc1ccc(NC(=O)CSc2ccc3ccccc3c2)cc1S(=O)(=O)N1CCCCC1	-12%	7%	8.6	-90%[inhibitor]	-1.1%	14	-8
Cc1cc(N(C)/N=C/c2ccccc2O)nc(-c2ccccc2O)n1	6%	0%	1.2	-1%	/	-4	2
O=C(Cc1cccs1)N(CC1CCCO1)C1(C(=O)NC2CCCC2)CCCCC1 (stereo unspecified)	1%	5%	2.8	-5%[15.4 µM]	/	-18	0
CCSc1nnc(NC(=O)COc2ccc(Cl)cc2)s1	-1%	-3%	-6.4	19%	0.7%	15	0
CCn1c(CNc2ccc(F)cc2)nnc1SCC#N	4%	-10%	-3.2	22%[15.4 µM]	/	-4	-3
O=C(CSc1nc(-c2ccccc2Cl)ns1)NCc1ccco1	-11%	4%	-0.6	3%	0.1%	-8	-10
COc1cc(NC(=O)CCc2c(C)nc3nc(C)nn3c2C)cc(OC)c1	-6%	15%	-1.0	3%	-2.6%	-7	-6
CCOC(=O)C1CCCN(c2c(Nc3ccc(OCC)cc3)c(=O)c2=O)C1 (stereo unspecified)	-18%	16%	0.1	-49%[inhibitor]	0.9%	-3	-10
Cc1cc(C)cc(OCC(=O)N/N=C\c2cn(C)nc2C)c1	-1%	6%	-1.4	-17%	8.6%	3	12
C=CCNc1cc(C)oc(=O)c1C(=O)CCC	17%	4%	0.7	19%	-1.9%	-8	-2
CN=C(Nc1cc(C)nn1-c1ccccc1)c1ccccc1	5%	11%	2.9	-4%	-1.2%	26	-4
O=C(Nc1ccc(NC(=O)C2CC2)nc1)c1cccs1	-3%	-2%	-1.0	-6%	0.3%	-12	-13
Cn1c(SCc2ccc(F)cc2Cl)nc2ccccc2c1=O	-3%	/	/	?	-4.8%	-2	-6
CCN(CC)C1=N/C(=C\c2ccc(OC)cc2)C(=O)N1c1ccccc1	-15%	-10%	-0.5	-8%[15.4 µM]	-8.3%	1	14
CC(C)(C)C(=O)Nc1ccc(C(=O)NCc2cccnc2)cc1	4%	-3%	0.6	-32%[inhibitor]	0.2%	24	-12
O=C(c1cnn(Cc2ccccc2)c1)N1CCN(S(=O)(=O)/C=C/c2ccccc2)CC1	-21%	/	/	34%	-0.5%	-15	2
O=C(COC(=O)c1cccnc1Cl)NC1CCCCCC1	7%	/	/	-33%[inhibitor]	/	/	-7
O=C(Cc1ccc(Cl)cc1)NNC(=O)Nc1cccc2ccccc12	2%	-4%	3.2	11%	?	6	-19
Nc1cc(C(=O)OCC(=O)NNC(=O)c2ccccc2F)ccc1Cl	-2%	/	/	12%[15.4 µM]	-1.8%	/	-7
COc1ccc(NC(=O)CSc2nnc(N)n2CC(=O)Nc2ccc(OC)cc2)cc1	20%	8%	1.2	-6%[15.4 µM]	/	9	19
Cc1ccc(NC(=O)c2sc(N)nc2C)cc1	-6%	0%	2.5	?	0.8%	-23	-6
CCN(Cc1ccncc1)C(=O)c1cc(COc2c(F)cccc2F)on1	-6%	18%	5.5	-2%	-2.7%	1	-4
CCOC(=O)CNC(=S)N(Cc1ccccc1)Cc1cccnc1	2%	17%	-1.0	5%[15.4 µM]	3.0%	-3	-5
CCCN(CCC)S(=O)(=O)c1ccc(C(=O)NNC(=O)c2cc(OC)c(OC)c(OC)c2)cc1	0%	12%	3.5	2%	/	6	-7
O=C(c1coc2ccccc2c1=O)N1CCN(c2cccc(C(F)(F)F)c2)CC1	4%	-9%	1.2	-36%[inhibitor]	0.5%	-15	-32
CCc1ccc(NC(=O)CCc2c(C)nn(-c3ccc(N4CCOCC4)nn3)c2C)cc1	0%	-2%	/	-2%	-5.3%	-9	-8
O=C(c1ccccc1)C1CCN(CC(=O)N2CCN(c3ccccc3)CC2)CC1	-6%	4%	-1.0	-32%[inhibitor]	-2.5%	0	-7
Nc1nc(Sc2ccc([N+](=O)[O-])c3nonc23)c2[nH]cnc2n1	-17%	/	/	13µM*	-1.0%	/	5
O=C(Nc1ccccc1)Nc1ccc(Oc2ncnc3cc(Cl)ccc23)nc1	8%	16%	3.1	1%	/	3	-7
COc1cccc(NC(=O)Nc2ccc(F)cc2)c1	/	/	/	?	-0.2%	/	-7
CCCC(NC(=O)c1ccco1)c1nc2ccccc2[nH]1 (stereo unspecified)	-8%	15%	-1.0	-7%	-1.8%	12	-13
O=C1CCC(NC(=O)c2ccccc2)C(=O)N1 (stereo unspecified)	7%	10%	-0.2	12%	/	4	-3
OCCN(CCO)CC(O)CN(c1ccccc1)c1ccccc1 (stereo unspecified)	1%	-5%	2.7	10%[15.4 µM]	0.1%	2	-6
CC(=O)N1CCCc2ccc(NS(=O)(=O)c3ccccc3)cc21	3%	/	/	2%[15.4 µM]	/	-1	1
COC(=O)c1nnn(-c2nonc2N)c1CSc1ccccn1	1%	18%	2.8	2%	0.7%	1	-3
CCn1c(=O)c(C(=O)NNC(=O)c2ccc(Cl)cc2Cl)c(O)c2ccccc21	-5%	23%	4.5	-5%	/	4	-6
Cc1cc(OCC(=O)Nc2ccccn2)c2c(C)c(C)c(=O)oc2c1	-8%	-8%	-4.8	0%	?	-1	-5
CCc1nnc(NC(=O)CN2CCN(c3cccc(OC)c3)CC2)s1	-2%	-7%	0.4	-38%[inhibitor]	0.7%	2	-2
NC(=O)c1ccc(C(F)(F)F)n(Cc2ccccc2Cl)c1=O	6%	17%	3.0	17%	-0.1%	-7	5
C=C(C)CSc1nc2ccccc2c(=O)n1-c1c(C)n(C)n(-c2ccccc2)c1=O	-1%	13%	-4.2	-2%[15.4 µM]	0.0%	4	1
COc1ccc(NC(=O)c2ccccc2[N+](=O)[O-])cc1	5%	21%	0.7	2%[15.4 µM]	0.6%	-13	-2
C=C(C)COc1ccc(-c2[nH]ncc2-c2ccccc2OC)c(O)c1	-23%	28%	0.8	25%	-9.5%	-10	14
Cc1ccc(NC(=O)c2cc(C)n(-c3ccccc3)c2C)cc1	-8%	0%	-0.5	-18%	-0.8%	-1	-22
CNC(=S)N/N=C(\C)c1cccc(C(F)(F)F)c1	-4%	-12%	-2.3	-30%	0.8%	-19	-18
C=CCn1c(-c2cccc(OC)c2)n[nH]c1=S	9%	1%	2.4	9%	-13%	-3	-18

# (continued)
SMILES	gsp antagonist	Sfp inh	Menin MLL FP FL	gsp ag	ClpP mod	TRPV1 PAM	D2 potentiator
O=C(COC(=O)CNS(=O)(=O)c1cccc(F)c1)NCCc1ccccc1	-10%	/	/	1%[15.4 µM]	/	-18	-1
CCc1ccc(C(=O)Nc2nc(C)cs2)s1	-4%	-4%	12	-6%	0.2%	-5	0
COc1ccc(-c2nnc(SCC3CCCO3)n2C)cc1 (stereo unspecified)	4%	11%	4.3	-2%[15.4 µM]	0.5%	8	0
CCOC(=O)C1=NN(c2ccccc2)C(c2ccccc2)CC1=O (stereo unspecified)	-13%	-6%	1.9	3%	-3.6%	-14	-13
CN1C(=O)C(C)(C)N(C(=O)c2cccc([N+](=O)[O-])c2)c2ccccc21	0%	14%	0.2	?	/	9	9
CCCc1nc2oc3c(NCCOCCO)ncnc3c2c2c1COC(C)(C)C2	11%	7%	0.5	9%	11%	15	5
Cc1cc(NC(=O)C2CC(c3cccc(Br)c3)=NO2)no1 (stereo unspecified)	3%	7%	1.7	-1%	0.3%	6	-1
NC(=O)c1ccsc1NC(=O)COC(=O)c1ccc([N+](=O)[O-])o1	2%	/	/	-43%[inhibitor]	0.4%	-6	7
CC(NC(=O)CCNC(=O)N1CCn2c1nc1ccccc12)c1ccccc1 (stereo unspecified)	-4%	8%	-2.5	?	3.1%	-9	-6
COc1ccc(-c2nn(CCC#N)cc2/C=N/O)cc1	12%	21%	-0.6	-2%[15.4 µM]	/	1	-1
O=C(NCCC1=CCCCC1)C1CCN(S(=O)(=O)c2ccccc2)CC1	6%	-8%	0.5	-20%	/	-21	-7
CC(=O)CCc1ccc2oc(C(=O)O)c(C)c2c1	2%	-3%	-0.2	-17%	-4.3%	7	-10
Cc1[nH]n(-c2ccccc2)c(=O)c1C=NCCc1ccccc1	-7%	12%	-1.0	-3%	-0.6%	8	-4
O=C(NC1CCCCCC1)c1cccs1	6%	-13%	?	14%	0.7%	/	-7
CC(C)C(NS(=O)(=O)c1cccs1)C(=O)N1CCc2ccccc2C1 (stereo unspecified)	0%	9%	3.4	10%	-6.0%	1	-29
COc1ccc2oc(C(=O)N3CCN(S(=O)(=O)c4cccc([N+](=O)[O-])c4)CC3)c(C)c2c1	-10%	10%	/	?	0.3%	6	12
